# FGF22 binding – binders of human FGF22 protein, primary screen, FGF22 synaptogenesis inhibitor project, biophysical, thermal shift, single point. recombinant FGF22 thermal shift, SYPRO orange fluorescence; percent of sucrose octasulfate shift, DMSO zero. calls only at 9.99 µM. 340,000 compounds, 1.5% hits;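 active = melting point raised past a set limit in the mean and every replicate; three in four hits are not shown here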
# Target sequence (Q9HCT0 whole entry, looked up): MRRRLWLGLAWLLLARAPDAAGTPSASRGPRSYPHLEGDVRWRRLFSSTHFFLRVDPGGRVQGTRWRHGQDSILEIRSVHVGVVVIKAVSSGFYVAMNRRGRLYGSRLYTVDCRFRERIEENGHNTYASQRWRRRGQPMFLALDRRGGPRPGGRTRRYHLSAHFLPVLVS
# MLL AF4-AF9 inh – inhibitors of AF4 peptide binding to AF9, primary screen, biochemical, AlphaScreen, biotin-AF4 peptide, FLAG-AF9, single point. Protein AF-9 (Homo sapiens), P42568. inhibition, % at 10 µM. 350,000 compounds, 0.47% hits. AID 651704, 2012;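 active = every replicate reaching a set inhibition limit, whatever the replicate mean, cut at about 25% in these data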;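 also: 0% = plate neutral control median and 100% = total signal loss; the record names both 10 and 1 µM as test concentration; the first replicate is given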
# Target sequence (P42568 whole entry, looked up): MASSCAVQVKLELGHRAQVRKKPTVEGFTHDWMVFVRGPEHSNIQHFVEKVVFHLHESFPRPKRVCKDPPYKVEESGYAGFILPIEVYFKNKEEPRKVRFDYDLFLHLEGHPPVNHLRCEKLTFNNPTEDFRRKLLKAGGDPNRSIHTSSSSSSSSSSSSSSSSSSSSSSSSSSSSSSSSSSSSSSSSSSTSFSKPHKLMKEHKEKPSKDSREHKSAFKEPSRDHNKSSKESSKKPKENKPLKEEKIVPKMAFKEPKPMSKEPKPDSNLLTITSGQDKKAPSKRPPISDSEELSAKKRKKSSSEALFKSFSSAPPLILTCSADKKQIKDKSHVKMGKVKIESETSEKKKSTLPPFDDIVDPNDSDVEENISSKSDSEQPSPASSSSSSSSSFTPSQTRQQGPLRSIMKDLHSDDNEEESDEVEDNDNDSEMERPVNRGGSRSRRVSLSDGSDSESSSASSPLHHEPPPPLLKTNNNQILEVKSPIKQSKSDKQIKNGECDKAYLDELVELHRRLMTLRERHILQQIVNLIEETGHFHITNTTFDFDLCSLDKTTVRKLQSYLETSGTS
# Numbers without * were called inactive; i = inactive; + = active, no number. These rows are one share of the data, so the mix of outcomes need not match the whole.
FGF22 binding	MLL AF4-AF9 inh	Compound
i	0.5	CCS(=O)(=O)N1CCC2(CC1)CN(S(=O)(=O)c1cccc(OC)c1)[C@@H](CO)c1[nH]c3cc(OC)ccc3c12
i	-30.1	Cc1noc(C)c1S(=O)(=O)N(C)C[C@@H]1Oc2c(NC(=O)C3CCCCC3)cccc2C(=O)N([C@H](C)CO)C[C@@H]1C
i	2.0	COc1ccc2c3c([nH]c2c1)[C@@H](CO)N(C(=O)C1CCCC1)CC31CCN(C)CC1
i	3.4	Cc1noc(C)c1NC(=O)Nc1ccc2c(c1)CC(=O)N([C@H](C)CO)C[C@@H](C)[C@@H](CN(C)Cc1ccc(Cl)c(Cl)c1)O2
i	-0.6	CO[C@H]1CN(C)C(=O)c2ccc(NS(C)(=O)=O)cc2OC[C@@H](C)N(C(=O)CN(C)C)C[C@H]1C
i	-0.5	Cc1noc(C)c1S(=O)(=O)Nc1ccc2c(c1)C(=O)N([C@@H](C)CO)C[C@@H](C)[C@H](CN(C)Cc1ccc(C(F)(F)F)cc1)OCCCC[C@H](C)O2
i	-1.9	COC(=O)N(C)C[C@@H]1OCc2ccccc2-c2c(n(C)c3ccccc23)C(=O)N([C@@H](C)CO)C[C@H]1C
i	-3.1	COc1ccc(S(=O)(=O)N(C)C[C@H]2Oc3ccc(NC(=O)CCC(F)(F)F)cc3CC(=O)N([C@@H](C)CO)C[C@H]2C)cc1
i	-1.2	Cc1ccc2c(c1)-n1c(nc3ccc(Cl)cc3c1=O)C(CC(C)C)NC2=O (stereo not given)
i	-3.6	CC(C)CN1C(=O)[C@@]2(Cc3ccccc31)c1ccccc1C(=O)N(Cc1ccccc1Cl)[C@H]2c1ccc(CO)cc1
i	-13.5	CC=Cc1ccc2n(c1=O)C[C@H]1[C@H](CO)[C@@H](C(=O)NC3CCCC3)N(CC3CCCCC3)[C@@H]21 (mixture of isomers)
i	1.1	COc1ccc(C#Cc2ccc3c(c2)O[C@@H](CN(C)C(=O)c2ccccn2)[C@@H](C)CN([C@@H](C)CO)S3(=O)=O)cc1
i	-1.4	CN1C(=O)c2cc(NC(=O)c3ccc(Cl)cc3)ccc2OC[C@@H]2O[C@H](CC(=O)O)CC[C@H]21
i	-3.4	COC(=O)c1c2oc(c1C(=O)OC)C(=O)N[C@H](Cc1ccccc1)Cn1cc(nn1)CNC(=O)[C@H](Cc1ccccc1)NC(=O)N[C@@H](CO)CC2
i	-0.7	CO[C@@H]1CN(C)C(=O)c2ccc(NS(=O)(=O)c3cn(C)cn3)cc2OC[C@H](C)N(Cc2cccc(F)c2)C[C@H]1C

# Compounds from the list above with an NH in an aromatic ring, in the order listed:
FGF22 binding	MLL AF4-AF9 inh	Compound
i	0.5	CCS(=O)(=O)N1CCC2(CC1)CN(S(=O)(=O)c1cccc(OC)c1)[C@@H](CO)c1[nH]c3cc(OC)ccc3c12
i	2.0	COc1ccc2c3c([nH]c2c1)[C@@H](CO)N(C(=O)C1CCCC1)CC31CCN(C)CC1

# Other results follow:
FGF22 binding	MLL AF4-AF9 inh	Compound
i	0.4	COc1ccc(C#Cc2ccc([C@H]3[C@H](CO)N4CCCCN(C(=O)Nc5ccc(F)cc5)C[C@@H]34)cc2)cc1
i	-1.0	O=S(=O)(N[C@@H]1CC[C@H](CCn2cc(-c3cccnc3)nn2)O[C@H]1CO)c1ccc(F)cc1
i	1.1	CCNC(=O)C[C@H]1CC[C@@H](NS(=O)(=O)c2ccc(C)cc2)[C@@H](CO)O1
i	5.8	CN(C)CC(=O)N[C@H]1CC[C@H](CCNC(=O)Nc2ccc(C(F)(F)F)cc2)O[C@H]1CO
i	0.8	O=C(C[C@@H]1C[C@H]2c3cc(NC(=O)Nc4ccccc4F)ccc3O[C@H]2[C@@H](CO)O1)NCCc1ccccc1
i	-1.7	Cc1noc(C)c1S(=O)(=O)Nc1ccc2c(c1)CC(=O)N([C@@H](C)CO)C[C@@H](C)[C@H](CN(C)C(=O)NC1CCCCC1)O2
i	-0.1	O=C(C[C@H]1C[C@@H]2c3cc(NS(=O)(=O)c4ccccc4)ccc3O[C@@H]2[C@H](CO)O1)N1CCCCC1
+	1.5	O=C(c1ccccc1F)N1CC(=O)N2[C@H](C1)[C@H](c1ccc(-c3ccc(F)cc3)cc1)[C@@H]2CO
i	-0.8	C[C@@H]1CN([C@H](C)CO)C(=O)c2cc(NC(=O)NC3CCCCC3)ccc2O[C@H]1CN(C)S(=O)(=O)c1ccccc1
i	0.2	CCCC(=O)Nc1ccc2c(c1)C(=O)N(C)[C@@H]1CC[C@H](CC(=O)NCCCN(C)C)O[C@@H]1CO2
i	-12.7	CCCC(=O)Nc1ccc2c(c1)C(=O)N(C)C[C@@H](OC)[C@H](C)CN(C(=O)C1CCCC1)[C@@H](C)CO2
i	0.5	C[C@H](O)C#Cc1cnc2c(c1)C(=O)N([C@@H](C)CO)C[C@H](C)[C@@H](CN(C)C(=O)CC1CC1)O2
i	-11.5	CC(C)CC#Cc1cnc2c(c1)C(=O)N([C@H](C)CO)C[C@@H](C)[C@@H](CN(C)S(C)(=O)=O)O2
i	-2.8	Cc1noc(C)c1NC(=O)Nc1ccc2c(c1)C(=O)N([C@@H](C)CO)C[C@H](C)[C@@H](CN(C)S(=O)(=O)c1cccs1)O2
i	3.3	COCCN1Cc2cc(C(=O)OC)c3c(c2C1=O)c1cc(F)ccc1n3S(=O)(=O)c1cccc(C)c1
i	-0.6	CN1CCN(C(=O)C[C@@H]2CC[C@H]3[C@@H](COc4ccc(NC(=O)c5cscn5)cc4C(=O)N3C)O2)CC1
i	3.2	CCC(=O)N1CC2(C1)[C@H](c1ccccc1)[C@@H](CO)N2Cc1cccc(Cl)c1
i	-15.4	O=C(C[C@H]1C=C[C@H](NC(=O)C2CCC2)[C@H](CO)O1)NCc1ccncc1
i	-0.6	N#C[C@@H]1[C@H](c2ccccc2C2=CCCC2)[C@@H](CO)N1C(=O)c1cccc(F)c1
i	1.3	COc1cccc(S(=O)(=O)N2CC3(CN[C@@H](CO)c4[nH]c5cc(OC)ccc5c43)C2)c1
i	0.0	COc1ccc(CN(C)C[C@@H]2Oc3ccc(NS(=O)(=O)c4cn(C)cn4)cc3CC(=O)N([C@H](C)CO)C[C@H]2C)cc1
i	-8.9	C[C@H](CO)N1C[C@H](C)[C@H](CN(C)C(=O)Nc2ccccc2)Oc2cc(C#CC3(O)CCCC3)ccc2S1(=O)=O
i	-4.1	C[C@@H]1CN([C@H](C)CO)C(=O)c2cc(C#C[C@@H](C)O)cnc2O[C@@H]1CN(C)C(=O)CN1CCOCC1
+	-5.2	CO[C@@H](CN(C)S(=O)(=O)c1cccc(Cl)c1)[C@@H](C)CN([C@@H](C)CO)S(=O)(=O)c1cccc(Cl)c1
i	11.0	C[C@H]1CN([C@@H](C)CO)C(=O)c2cc(C#CCc3ccccc3)cnc2O[C@@H]1CN(C)Cc1cccc(F)c1
i	0.4	C[C@@H]1CN([C@@H](C)CO)C(=O)c2cc(Br)cnc2O[C@H]1CN(C)S(=O)(=O)c1ccc(F)cc1
i	-0.7	COc1ccc2c3c(n(C)c2c1)[C@H](CO)N(C(=O)NC1CCCCC1)CC31CCN(C)CC1
i	-0.6	CCCNC(=O)N1[C@@H]2Cn3c(ccc(-c4ccc(OC)cc4)c3=O)[C@H]1[C@@H](C(=O)NC1CCC1)[C@@H]2CO
i	1.1	COc1ccc(NC(=O)N[C@H]2CC[C@@H](CCn3cc(-c4ccccc4)nn3)O[C@@H]2CO)cc1
i	-30.5	CCCNC(=O)[C@@H]1[C@@H](CO)[C@@H]2Cn3c(ccc(-c4ccncc4)c3=O)[C@H]1N2C(=O)CC1CC1
i	0.9	C/C=C/c1ccc2c(c1)O[C@@H](CN(C)C(=O)Cc1ccncc1)[C@@H](C)CN([C@@H](C)CO)S2(=O)=O
i	-4.1	C/C=C/c1cnc2c(c1)C(=O)N([C@H](C)CO)C[C@H](C)[C@H](CN(C)C(=O)c1cccc(F)c1)O2
i	2.0	Cc1noc(C)c1S(=O)(=O)N(C)C[C@@H]1Oc2c(NC(=O)c3ccc(-c4nccs4)cc3)cccc2C(=O)N([C@H](C)CO)C[C@@H]1C

# Of the compounds above, 10 contain an aryl methoxy group.
FGF22 binding	MLL AF4-AF9 inh	Compound
i	0.5	CCS(=O)(=O)N1CCC2(CC1)CN(S(=O)(=O)c1cccc(OC)c1)[C@@H](CO)c1[nH]c3cc(OC)ccc3c12
i	2.0	COc1ccc2c3c([nH]c2c1)[C@@H](CO)N(C(=O)C1CCCC1)CC31CCN(C)CC1
i	-3.1	COc1ccc(S(=O)(=O)N(C)C[C@H]2Oc3ccc(NC(=O)CCC(F)(F)F)cc3CC(=O)N([C@@H](C)CO)C[C@H]2C)cc1
i	1.1	COc1ccc(C#Cc2ccc3c(c2)O[C@@H](CN(C)C(=O)c2ccccn2)[C@@H](C)CN([C@@H](C)CO)S3(=O)=O)cc1
i	0.4	COc1ccc(C#Cc2ccc([C@H]3[C@H](CO)N4CCCCN(C(=O)Nc5ccc(F)cc5)C[C@@H]34)cc2)cc1
i	1.3	COc1cccc(S(=O)(=O)N2CC3(CN[C@@H](CO)c4[nH]c5cc(OC)ccc5c43)C2)c1
i	0.0	COc1ccc(CN(C)C[C@@H]2Oc3ccc(NS(=O)(=O)c4cn(C)cn4)cc3CC(=O)N([C@H](C)CO)C[C@H]2C)cc1
i	-0.7	COc1ccc2c3c(n(C)c2c1)[C@H](CO)N(C(=O)NC1CCCCC1)CC31CCN(C)CC1
i	-0.6	CCCNC(=O)N1[C@@H]2Cn3c(ccc(-c4ccc(OC)cc4)c3=O)[C@H]1[C@@H](C(=O)NC1CCC1)[C@@H]2CO
i	1.1	COc1ccc(NC(=O)N[C@H]2CC[C@@H](CCn3cc(-c4ccccc4)nn3)O[C@@H]2CO)cc1
